Screening data (PubChem)
Sfp inh = qHTS Assay for Inhibitors of Bacillus subtilis Sfp phosphopantetheinyl transferase (PPTase); 310,000 compounds, 3.5% hits; AID 1490, 2009; Biochemical Sfp PPTase activity, qHTS; Potency, µM, inactives show max response, negative = inhibition, hits mostly inhibitors; 4'-phosphopantetheinyl transferase ffp (Bacillus subtilis), Q9F4F7; active = well fitted inhibition curve with a large enough effect; inconclusive = small, poorly fitted or top-dose-only effect, or another doubt; inactive = no such curve, though single readings can be large or run the other way;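 note: the enzyme is Sfp with the accession as filed and its product quenches rhodamine fluorescence; potency is the fitted concentration of half-maximal effect; 0% = enzyme reaction without inhibitor and -100% = no enzyme wells; top concentration of the series not given in the record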
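Reaction rates are the 30-min fluorescence difference (ex 525, em 598 nm) in wells containing 15 nM Sfp, 5 uM rhodamine-CoA and 12.5 uM BHQ-2-YbbR at pH 7.6 with 10 mM MgCl2.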
PINK1 expr mod = A Quantitative High throughput Screen to Identify Chemical Modulators of PINK1 Expression. 410,000 compounds, 0.2% hits. PINK1 immunofluorescence, high-content cytometry, 24 h. Potency, µM (titrated, usually from 76.6 µM), for the others: at the top dose activation (PINK1 increase), most hits filed as activators. AID 624263, 2012; active = well fitted activation curve with a large enough effect; inconclusive = small, poorly fitted or top-dose-only effect; inactive = flat fitted curve, though single readings scatter; cell line not stated here;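 note: potency is the fitted concentration of half-maximal effect; % of control where 0% means no effect; nearly all actives have a fitted effect of over 65% in size; a mitochondrial uncoupler was the plate control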
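Stable cell line treated 24 h with compounds at 5 concentrations (CCCP controls), then fixed and immunostained for PINK1 plus nuclear and cell stains; PINK1 immunofluorescence quantified by laser-scanning microplate cytometry.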
TRPML1 ag = qHTS for Agonists of the Human Mucolipin Transient Receptor Potential 1 (TRPML1); TRPML1-expressing cells, Ca2+ dye fluorescence, FDSS; host cell line not named in the record; reference of the full effect not given here; 410,000 compounds, 0.12% hits; AID 624414, 2012; activation, % (test concentration not listed); Mucolipin-1 (Homo sapiens), Q9GZU1; in the data active = activation above about 50%; inconclusive = about 30% to 50%; inactive = below about 30%; note: 0% is about no effect; the text of the record puts the active cut at 80%
Target sequence (Q9GZU1 whole entry, looked up): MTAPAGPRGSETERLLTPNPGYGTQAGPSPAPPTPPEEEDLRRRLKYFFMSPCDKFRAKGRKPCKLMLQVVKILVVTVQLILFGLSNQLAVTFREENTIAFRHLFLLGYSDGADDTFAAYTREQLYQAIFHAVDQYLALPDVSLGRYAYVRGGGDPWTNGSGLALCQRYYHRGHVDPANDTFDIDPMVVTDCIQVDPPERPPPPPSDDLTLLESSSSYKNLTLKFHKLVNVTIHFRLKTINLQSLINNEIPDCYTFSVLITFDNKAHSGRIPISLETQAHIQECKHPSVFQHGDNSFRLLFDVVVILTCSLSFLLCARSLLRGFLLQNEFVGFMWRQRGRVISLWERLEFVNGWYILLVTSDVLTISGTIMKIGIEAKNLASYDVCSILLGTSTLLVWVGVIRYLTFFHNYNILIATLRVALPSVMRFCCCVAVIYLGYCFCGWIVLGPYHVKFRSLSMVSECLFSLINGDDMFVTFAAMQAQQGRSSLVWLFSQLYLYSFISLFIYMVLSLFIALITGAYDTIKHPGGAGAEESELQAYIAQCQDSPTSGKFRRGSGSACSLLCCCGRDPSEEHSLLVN
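Agonist activity was taken from a 110 s kinetic Ca2+ dye read on the FDSS after pinning compounds onto TRPML1-DL cells. The cells were seeded at 1,500/well with Tet inducer, incubated about 16 h, then dye-loaded at room temperature.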
TRPML1 inh = qHTS for Inhibitors of the Human Mucolipin Transient Receptor Potential 1 (TRPML1); Mucolipin-1 (Homo sapiens), Q9GZU1; TRPML1-inducible cells, Ca2+ dye fluorescence, FDSS; active compounds read low; inhibition of EC80 agonist-evoked calcium signal; activity change, negative = inhibition, % (concentration not given with the values); 390,000 compounds, 0.02% hits; in the data active means activity change below about -50%; inconclusive means about -30% to -50%; inactive means above about -30%;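 note: stimulus is agonist 54-4 at its EC80 concentration; % is set by controls: 0 for no effect and ±100 for the full control effect; the text of the record puts the active cut at -80%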
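TRPML1-DL cells, Tet-induced overnight (~16 h, 37 °C) at 1,500 cells/well, were loaded with Ca8 no-wash dye plus quencher for 45-90 min at room temperature. Compounds were pinned during FDSS kinetic reading; agonist 54-4 at EC80 (4 uM final) then added.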
TRPV1 PAM = HTS Assay for Compounds that Act as Potentiators of the Vanilloid Receptor 1; Transient receptor potential cation channel subfamily V member 1 (Homo sapiens), Q8NER1; TRPV1-expressing cells, Fluo-8 calcium influx, capsaicin EC20 potentiation; host cell line not named in the record; control for the full effect not named in the record; potentiation, % at 8.33 µM; 320,000 compounds, 0.02% hits; active means potentiation above 80%; inconclusive means 30% to 80%; inactive means below 30%; note: 0% is about no effect
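TRPV1-expressing cells were cultured overnight at 35.5C and loaded with Fluo-8 calcium dye for 40 to 90 min at room temperature. After a 10 s baseline, compound was added and calcium influx was read kinetically for 3 min (ex 480/em 520 nm).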
Menin MLL FP FL = qHTS Assay for Inhibitors Targeting the Menin-MLL Interaction in MLL Related Leukemias: Competition With Fluorescein Labeled MLL-derived Peptide; Fluorescence polarization, fluorescein-MLL peptide displacement from menin; FP activity change, % at 61.4 µM; 290,000 tested, under 10 active; inconclusive = falling polarisation curve, or a change in total fluorescence; inactive = total fluorescence flat and polarisation flat or rising; no compound was filed as active; the % refers to the polarisation; negative = inhibition;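 note: % of control where 0% means no effect; inhibitors lower the polarisation; unlabelled MLL peptide was the positive control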
ClpP mod = qHTS Assay for Activators of ClpP; ATP-dependent Clp protease proteolytic subunit (Bacillus subtilis (strain 168)), P80244; AID 651965, 2013; purified B. subtilis ClpP, FRET peptide cleavage, 20 min; Potency, µM (series often up to 57.5 µM), for the others: at the highest dose activity change, negative = active; 340,000 compounds, 1.9% hits; active = well fitted falling curve with a large enough effect; inconclusive = small, poorly fitted or top-dose-only effect; inactive = no such curve, though single readings can be large or run the other way; note: potency is the fitted concentration of half-maximal effect; the source files actives as falling curves though it sought activators and does not explain the sign; nearly all actives have a fitted effect of over 65% in size; many hits overshoot -100%
Target sequence (P80244 whole entry, looked up): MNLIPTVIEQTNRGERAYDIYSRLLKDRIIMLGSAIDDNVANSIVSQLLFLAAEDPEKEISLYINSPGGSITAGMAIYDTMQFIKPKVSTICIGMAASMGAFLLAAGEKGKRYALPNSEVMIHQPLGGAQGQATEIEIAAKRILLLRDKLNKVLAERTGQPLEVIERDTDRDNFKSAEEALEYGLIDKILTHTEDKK
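FRET quenching reversal measured ClpP activation: 10 microg/mL B. subtilis ClpP at pH 8 with the FRET-FV decapeptide, read at 430 nm after 320 nm excitation. The 20-min minus 0-min signal was scaled between DMSO/no-enzyme wells and ADEP (5.8 microM final).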
An asterisk follows results filed as active; [ ] = another dose, or the depositor's remark.

Screening Cc1ccc(NC(=O)CN2C(=O)NC(C)(C3CC3)C2=O)cc1S(=O)(=O)N1CCCCC1 (configuration not stated) returned PINK1 expr mod 1.7%, TRPML1 ag 1.9, TRPML1 inh -10, TRPV1 PAM 0 and ClpP mod -0.7%.
Screening CCOC(=O)c1ccccc1NC(=O)c1cccs1 returned Sfp inh -6%, PINK1 expr mod -0.3%, TRPML1 ag 2.2, TRPML1 inh 10, TRPV1 PAM -13, Menin MLL FP FL 1.1 and ClpP mod 13%.
Screening COc1ccccc1NC(=O)CCCCC(=O)Nc1ccccc1OC returned Sfp inh 12%, PINK1 expr mod 5.6%, TRPML1 ag 1.0, TRPML1 inh 5, TRPV1 PAM -6, Menin MLL FP FL -5.6 and ClpP mod -1.6%.
Screening COc1ccc(CN2CCNC(=O)C2CC(=O)NC2CCOCC2)cc1C (configuration not stated) returned Sfp inh 1%, PINK1 expr mod 0.0%, TRPML1 ag 0.4, TRPML1 inh 29, TRPV1 PAM 10, Menin MLL FP FL -2.4 and ClpP mod -8.7%.
Screening CCCN(CCC)C(=O)Cn1c(=O)n(-c2ccc(OC)cc2)c(=O)c2ccc(C(=O)NCc3ccc(C)cc3)cc21 returned PINK1 expr mod -3.6%, TRPML1 ag 3.0, TRPML1 inh 1 and ClpP mod -15%.
CCN1c2ccccc2-n2cccc2C12CCN(C(=O)Nc1ccccc1Br)CC2 was read as PINK1 expr mod 2.6%, TRPML1 ag 0.7, TRPML1 inh -8 and ClpP mod -19%.
Screening NC(=O)c1ccccc1N/C=C/C(=O)c1ccccc1 returned Sfp inh inconclusive, TRPML1 ag -0.2, TRPML1 inh 16, TRPV1 PAM 9, Menin MLL FP FL 8.5 and ClpP mod 5.0%.
Screening COc1ccc(NC(=O)CN2C(=O)NC(C)(c3ccccc3)C2=O)cn1 (configuration not stated) returned PINK1 expr mod -1.6%, TRPML1 ag -0.4, TRPML1 inh 0 and ClpP mod -0.4%.
For CCc1ccccc1S(=O)(=O)Cc1ccc(C(=O)NCc2cccs2)o1 the results were Sfp inh 15%, PINK1 expr mod -0.4%, TRPML1 ag 0.5, TRPML1 inh 3, TRPV1 PAM -7, Menin MLL FP FL 0.0 and ClpP mod -0.6%.
For CCN(CCCNC(=O)CNC(=O)c1nn(-c2ccc(OC)c(OC)c2)c(=O)c2ccccc12)c1ccccc1 the results were Sfp inh 6%, PINK1 expr mod 1.6%, TRPML1 ag 0.4, TRPML1 inh 1, TRPV1 PAM inconclusive and Menin MLL FP FL -4.2.
O=C(Cc1cccs1)Nc1nnc(COc2ccccc2)s1 was read as PINK1 expr mod 1.5%[38.3 µM], TRPML1 ag -0.4, TRPML1 inh 4 and ClpP mod -2.9%.
For COc1ccc(CNC(=S)N/N=C/c2ccc(O)c(OC)c2)cc1 the results were Sfp inh -7%, PINK1 expr mod inconclusive, TRPML1 ag -0.2, TRPML1 inh 7, TRPV1 PAM 9, Menin MLL FP FL -0.1 and ClpP mod -19%.
Cc1cccc(NS(=O)(=O)c2cn(C)c(=O)n(C)c2=O)c1C was read as Sfp inh 15%, PINK1 expr mod 3.2%, TRPML1 ag -0.6, TRPML1 inh 12, TRPV1 PAM 3, Menin MLL FP FL -4.7 and ClpP mod 1.7%.
For COc1ccc(S(=O)(=O)N2CCCCCC2)cc1C(=O)NCCc1ccc(F)cc1 the results were PINK1 expr mod 0.6%, TRPML1 ag 0.2, TRPML1 inh 5, TRPV1 PAM -11 and ClpP mod 0.0%.
O=C(Cn1c(-c2cccs2)cc2ccccc21)N1CCN(c2ccc(F)cc2)CC1 was read as PINK1 expr mod -0.9%, TRPML1 ag 1.3, TRPML1 inh 65 and ClpP mod 35µM*.
For CCCc1cc(=O)oc2cc(Oc3ncccn3)ccc12 the results were Sfp inh 4%, PINK1 expr mod -1.3%, TRPML1 ag 0.8, TRPML1 inh -17, TRPV1 PAM 1, Menin MLL FP FL 3.5 and ClpP mod inconclusive.
Screening COc1cc(Cl)c(C)cc1NC(=O)CSc1nc2c(c(=O)[nH]1)CCCC2 returned PINK1 expr mod 2.9%, TRPML1 ag 2.2, TRPML1 inh -8 and ClpP mod 0.6%.
CC(/C=N/NC(=O)c1cc(-c2ccncc2)nc2ccccc12)=C\c1ccco1 was read as Sfp inh 22µM*, PINK1 expr mod 14%[38.3 µM], TRPML1 ag -0.6, TRPML1 inh -8, TRPV1 PAM 7, Menin MLL FP FL 4.8 and ClpP mod -3.2%.
Screening O=C(N/N=C/C=C\c1ccccc1[N+](=O)[O-])c1cc(-c2ccc3ccccc3c2)n[nH]1 returned Sfp inh -22%, PINK1 expr mod 6.2%, TRPML1 ag -0.4, TRPML1 inh -1, TRPV1 PAM 5 and Menin MLL FP FL 0.3.
For O=C(N/N=C\c1cccc(Cl)c1)c1ccc(Cn2cc(Br)c([N+](=O)[O-])n2)o1 the results were Sfp inh -23%, PINK1 expr mod 20%, TRPML1 ag 1.5, TRPML1 inh -16, TRPV1 PAM 9, Menin MLL FP FL -7.8 and ClpP mod -4.2%.

Reprinted from the part before: three compounds, followed by the next part.
CC(/C=N/NC(=O)c1cc(-c2ccncc2)nc2ccccc12)=C\c1ccco1 was read as Sfp inh 22µM*, PINK1 expr mod 14%[38.3 µM], TRPML1 ag -0.6, TRPML1 inh -8, TRPV1 PAM 7, Menin MLL FP FL 4.8 and ClpP mod -3.2%.
Screening O=C(N/N=C/C=C\c1ccccc1[N+](=O)[O-])c1cc(-c2ccc3ccccc3c2)n[nH]1 returned Sfp inh -22%, PINK1 expr mod 6.2%, TRPML1 ag -0.4, TRPML1 inh -1, TRPV1 PAM 5 and Menin MLL FP FL 0.3.
For O=C(N/N=C\c1cccc(Cl)c1)c1ccc(Cn2cc(Br)c([N+](=O)[O-])n2)o1 the results were Sfp inh -23%, PINK1 expr mod 20%, TRPML1 ag 1.5, TRPML1 inh -16, TRPV1 PAM 9, Menin MLL FP FL -7.8 and ClpP mod -4.2%.
Screening CC(=O)c1ccc(OCc2cn(CC(=O)c3ccc(O)cc3)nn2)cc1 returned PINK1 expr mod -1.1%, TRPML1 ag -0.3, TRPML1 inh 6 and ClpP mod -1.7%.
C=CCn1c(=O)c2c(nc(-n3nc(C)cc3C)n2C)n(C)c1=O was read as Sfp inh 9%, PINK1 expr mod 1.2%, TRPML1 ag 0.0, TRPML1 inh -5, TRPV1 PAM 3, Menin MLL FP FL 1.8 and ClpP mod -1.1%.
O=c1c(-c2ccc(Cl)cc2)coc2c(CN3CCCCC3)c(O)ccc12 was read as Sfp inh 11%, PINK1 expr mod -1.4%, TRPML1 ag -0.7, TRPML1 inh -5, TRPV1 PAM -5, Menin MLL FP FL -8.1 and ClpP mod inconclusive.
Screening Cc1nc2ccccc2n1CCOc1ccc(F)cc1 returned Sfp inh 17%, PINK1 expr mod -1.3%, TRPML1 ag -0.3, TRPML1 inh 14, TRPV1 PAM -19, Menin MLL FP FL -2.2 and ClpP mod -2.4%.
`COc1ccc(CCNC(=O)COc2ccc(S(=O)(=O)N3CCOCC3)cc2)cc1` gave Sfp inh 2%, PINK1 expr mod 0.4%[38.3 µM], TRPML1 ag 0.5, TRPML1 inh -5, TRPV1 PAM -6, Menin MLL FP FL -1.7 and ClpP mod -1.1%.
COc1ccccc1CC(=O)NNS(=O)(=O)c1cccc([N+](=O)[O-])c1 was read as Sfp inh 5%, PINK1 expr mod -0.1%, TRPML1 ag -0.3, TRPML1 inh 9 and TRPV1 PAM -4.
COc1ccc(N/C=C(\C#N)S(=O)(=O)c2ccc(OC)cc2)cc1 was read as Sfp inh 5%, PINK1 expr mod -0.3%, TRPML1 ag 0.9, TRPML1 inh -1, TRPV1 PAM -10, Menin MLL FP FL -3.2 and ClpP mod 1.1%.
For O=C(O)CN1C(=O)C2C3CC(C2C1=O)C1C(c2ccc(F)cc2)c2sc(=O)[nH]c2SC31 (configuration not stated) the results were Sfp inh 45µM*, PINK1 expr mod -1.4%, TRPML1 ag -0.4, TRPML1 inh -7, TRPV1 PAM -7, Menin MLL FP FL 3.6 and ClpP mod -43%.
For COc1cc(/C=C/C(=O)OCC(=O)Nc2c(C)n(C)n(-c3ccccc3)c2=O)ccc1OCC#N the results were Sfp inh 13%, PINK1 expr mod 0.2%, TRPML1 ag -0.1, TRPML1 inh 0, TRPV1 PAM 4, Menin MLL FP FL 4.5 and ClpP mod 3.3%.
Screening S=c1nc(-c2ccccc2)c(-c2ccccc2)n[nH]1 returned Sfp inh -3%, PINK1 expr mod 2.2%, TRPML1 ag 1.2, TRPML1 inh 15, TRPV1 PAM 16, Menin MLL FP FL 0.3 and ClpP mod -0.1%.
For COc1ccc(C(=O)N2CCN(c3ccc(NC(=O)c4cccnc4)cc3)CC2)cc1 the results were Sfp inh 9%, PINK1 expr mod -1.3%, TRPML1 ag -0.4, TRPML1 inh 9, TRPV1 PAM 11, Menin MLL FP FL 7.7 and ClpP mod 1.1%.
Screening CCOC(=O)[C@H]1[C@H]2COc3ccc(C)cc3[C@@H]2N2C(=O)c3cc(F)ccc3NC(=O)[C@@]12C returned PINK1 expr mod 2.2%, TRPML1 ag -0.4, TRPML1 inh 41, TRPV1 PAM 18 and ClpP mod -3.1%.
N#Cc1ccccc1Sc1ccccc1C(=O)OCc1nnc(-c2ccccc2)o1 was read as Sfp inh 14%, PINK1 expr mod -1.4%, TRPML1 ag -0.3, TRPML1 inh 1, TRPV1 PAM 15, Menin MLL FP FL 0.4 and ClpP mod -13%.
For O=C(NCCc1ccccc1)c1ccc2nc3cc(Cl)ccc3c(=O)n2c1 the results were Sfp inh 11%, PINK1 expr mod 5.3%, TRPML1 ag -0.2, TRPML1 inh -5, TRPV1 PAM 29, Menin MLL FP FL 0.3 and ClpP mod -13%.
